# GIRK2 act = activators of human GIRK2 potassium channels; 63,000 compounds, 0.05% hits; HEK293-GIRK2 thallium flux, Thallos fluorescence; G protein-activated inward rectifier potassium channel 2 (Homo sapiens), P48051; AID 1259325, 2017; calls only for hits at 25 µM;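 active = among the strongest 0.2% of first-round signals and kept after retests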;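 also: first round at about 10 µM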
# Target sequence (P48051 whole entry, looked up): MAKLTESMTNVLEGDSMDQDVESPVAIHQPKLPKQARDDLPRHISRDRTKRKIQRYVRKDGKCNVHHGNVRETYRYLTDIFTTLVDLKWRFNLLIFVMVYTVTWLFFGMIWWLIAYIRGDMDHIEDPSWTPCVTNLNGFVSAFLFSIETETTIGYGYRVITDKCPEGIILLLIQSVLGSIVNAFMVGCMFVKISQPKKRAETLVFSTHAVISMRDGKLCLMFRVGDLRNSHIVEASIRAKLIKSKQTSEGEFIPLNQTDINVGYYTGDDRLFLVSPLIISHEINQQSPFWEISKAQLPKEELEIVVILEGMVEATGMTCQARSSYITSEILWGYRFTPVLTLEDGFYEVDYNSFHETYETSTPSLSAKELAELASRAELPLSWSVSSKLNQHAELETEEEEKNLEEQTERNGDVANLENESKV
# Calls only; i = inactive. The list is partial; the hit share may differ from the screen's.
GIRK2 act,Compound
i,Cc1cccc(S(=O)(=O)NCCC(O)c2ccoc2)c1 (centres undefined)
i,CC(=O)N1CCN(C(=O)C(NC(=O)c2cccs2)S(=O)(=O)c2ccc(Cl)cc2)CC1 (centres undefined)
i,O=C(c1cccs1)N1CC(c2nc(-c3ccccc3)no2)C1
i,COc1ccccc1CC(=O)NC1(c2nc(C3CC3)no2)CCCCC1
i,CC(C)NC(=O)C(=O)c1cn(CC(=O)N2CCOCC2)c2ccccc12
i,Cc1cc(C)cc(NC(=O)Cn2c(=O)nc(N3CCC(C)CC3)c3ccccc32)c1
i,CC(C)c1cc(C(C)C)c(S(=O)(=O)n2ccnc2)c(C(C)C)c1
i,N#Cc1cccc(C(=O)N2CCN(C3=NN=C(c4ccccc4)CS3)CC2)c1
i,CCOC(=O)c1c(S(=O)(=O)N2CCN(c3ccc(C(C)=O)cc3)CC2)n[nH]c1C
i,COc1ccccc1NC(=O)Cn1cc(-c2nnc(-c3ccccc3)o2)c2ccccc21
i,COc1ccc(NC(=O)CN2CCC(C(=O)Nc3ncc(C)s3)CC2)c(OC)c1
i,CCOc1ccccc1NC(=O)Cc1c(C)nc(SCc2cccc(Cl)c2)[nH]c1=O
i,COc1cccc2cc(C(=O)N3CCOC(c4cc(Cl)cc(Cl)c4)C3)c(=O)oc12 (centres undefined)
i,COc1cccc2c1OC(C)C(=O)N(c1ccc(F)cc1Br)C2 (centres undefined)
i,CSc1ccc(CNC(=O)COc2cc(C)nc(N3CCCC(C)C3)n2)cc1 (centres undefined)
i,O=C(CCc1csc(NC(=O)c2ccc(=O)[nH]c2)n1)NCc1ccccc1Cl
i,O=C(NCC(O)c1ccc2c(c1)CCO2)C(=O)Nc1ccc(F)c(Cl)c1 (centres undefined)
i,Cn1c(=O)c2c(nc3n2CC(O)CN3c2ccc(O)cc2)n(C)c1=O (centres undefined)
i,O=C(NCCN1CCN(c2ccccc2)CC1)NCc1cccs1
i,CCOc1ccc(S(=O)(=O)Nc2ccc3c(c2)CCCN3S(=O)(=O)CC)cc1
i,Cc1ccc2c(Nc3ccc(S(N)(=O)=O)cc3)c(C(=O)N3CCOCC3)cnc2n1
i,CC(=O)c1cccc(NC(=O)CSc2nc3c(sc(=S)n3-c3ccccc3)c(=O)[nH]2)c1
i,COc1cc(OC)cc(C(=O)Nc2cc(C)nn2-c2nc3c(F)cccc3s2)c1
i,COCC(=O)Nc1nc2nc(C)cc(C)c2s1
i,COc1ccc(NC(=O)C2=Cc3cc(Cl)cc(OC)c3OC=C2)cc1
i,O=C1/C(=C/c2cc(Cl)cc3c2OCOC3)Oc2cc(OC(=O)C3CC3)ccc21
i,COc1ccc(-c2csc(-c3nnn(-c4ccc(Cl)cc4)c3N)n2)cc1
i,COC(=O)c1[nH]c(C)c(C(O)=CC(=O)C(=O)NCCN2CCOCC2)c1C
i,CNC(=O)C1Cc2ccccc2N1C(=O)c1cccc(OC)c1 (centres undefined)
i,NC(=O)c1cc2c(=O)n3ccccc3nc2n1Cc1ccccc1
i,Cc1noc(-c2cccn(Cc3nc(-c4ccc(OC(F)(F)F)cc4)no3)c2=O)n1
i,CCc1ccc(Oc2cc(N3CCC(C(=O)N4CCSCC4)CC3)ncn2)cc1
i,COc1ccc(S(=O)(=O)N2CCCc3cc(N)ccc32)cc1
i,O=C(Nc1ccc(F)c(C(F)(F)F)c1)C1COCC(=O)N1Cc1cccs1 (centres undefined)
i,O=C(C1c2ccccc2Oc2ccccc21)N1CCN(CC(O)c2cccs2)CC1 (centres undefined)
i,Cn1c(=O)c(C(=O)Nc2ccc(OC(F)(F)F)cc2)cc2cccnc21
i,O=C(COc1ccc(Cl)cc1)NCCCS(=O)(=O)N1CCc2ccccc2C1
i,NNC(=O)Cc1cc(=O)oc2cc(O)ccc12
i,CC1CN(CC(=O)Nc2ncc(Cc3ccc(F)cc3)s2)CC(C)O1 (centres undefined)
i,COc1cc(NC(=O)c2cc(=O)c(OC)cn2C)cc(OC)c1OC

# In another format: entries from further up.
Cc1ccc2c(Nc3ccc(S(N)(=O)=O)cc3)c(C(=O)N3CCOCC3)cnc2n1
  GIRK2 act: i

COCC(=O)Nc1nc2nc(C)cc(C)c2s1
  GIRK2 act: i

CC1CN(CC(=O)Nc2ncc(Cc3ccc(F)cc3)s2)CC(C)O1 (centres undefined)
  GIRK2 act: i

COc1ccc(S(=O)(=O)N2CCCc3cc(N)ccc32)cc1
  GIRK2 act: i

# Later entries.
GIRK2 act,Compound
i,CN1C(=O)CSc2cnn(CC(=O)Nc3ccc(Br)cc3)c(=O)c21
i,CC1CCN(C(=O)Cn2c(-c3ccccn3)nc3ccccc32)CC1
i,CCn1cc(-c2nc(-c3cccc(OC)c3OC)no2)c(=O)c2cc(F)c(N3CCOCC3)cc21
i,COc1ccc(-c2nnc3n(Cc4cccc(C)c4)c4c(=O)n(C)c(=O)n(C)c4n23)cc1
i,Cn1nc(-c2ccccc2)cc1C(=O)N1CCc2nc(NC(=O)c3ccco3)sc2C1
i,Cc1ccc(NCCNC(=O)Nc2ccc(C)c(Cl)c2)nn1
i,CC(C)c1ccc(CNC(=O)CCn2cnc3c([nH]c4ccc(F)cc43)c2=O)cc1
i,O=c1ccc(-c2nc(-c3ccsc3)no2)cn1Cc1ccc(OC(F)(F)F)cc1
i,CCC(=O)N1CCCC1c1nc2ccccc2n1Cc1ccc(Br)cc1 (centres undefined)
i,O=C(Nc1ccc(F)cc1)c1ccc2noc(-c3ccccc3)c2c1
i,COc1cc(-c2c(C)cc(O)cc2O[C@@H]2O[C@H](CO)[C@@H](O)[C@H](O)[C@H]2O)oc(=O)c1
i,O=C(c1ccc(OC(F)(F)F)cc1)N(Cc1ccsc1)Cc1ccco1
i,O=C(Nc1cccc(-c2ccn[nH]2)c1)c1ccc2c(c1)OCO2
i,Cc1cnc2n(c1=O)CC(C(=O)N1CCC(Cc3ccccc3)CC1)CS2 (centres undefined)
i,COc1ccc2c(c1)c(CC(=O)NCCc1cccc(Cl)c1)c(C)n2C(=O)c1ccc(Cl)cc1
i,NS(=O)(=O)c1ccc(CCNC(=O)CCCCCn2c(=O)[nH]c3ccsc3c2=O)cc1
i,Cc1ccc(-c2ccc3nn(CC(=O)Nc4ccc(Cl)cc4F)c(=O)n3n2)cc1
i,CC(C)c1nnc(C2CCN(Cc3ccccn3)CC2)o1
i,CC(C)N(CC#CCNC(=O)/C=C/c1cccs1)C(C)C
i,O=C(NCc1ccccn1)c1cc2cc([N+](=O)[O-])ccc2oc1=O

# In a second layout: two of the compounds above
SMILES	GIRK2 act
CC1CCN(C(=O)Cn2c(-c3ccccn3)nc3ccccc32)CC1	i
COCC(=O)Nc1nc2nc(C)cc(C)c2s1	i

# (next part)
GIRK2 act,Compound
i,O=C(c1cccc(Cl)c1)N1CCN(CC(F)(F)F)CC1
i,O=C1CCC(=O)N1c1ccc(S(=O)(=O)Nc2ccccc2)cc1
i,CCCc1nnsc1C(=O)NC1CC(=O)N(C2CC2)C1 (centres undefined)
i,O=C(Nc1ccccc1)N1CCC(CSc2ccccn2)CC1
i,CCOc1ccc(CC(=O)Nc2ccc3nc(C)n(-c4ccc(F)cc4)c(=O)c3c2)cc1
i,Cc1cc(Br)ccc1NC(=O)c1nnn(-c2ccc(F)cc2)n1
i,COc1ccc(CC(=O)NCC#CCOc2cccc(C(F)(F)F)c2)cc1OC
i,CCOC(=O)N1CCN(Cc2cc(=O)oc3c(C)c(C)cc(C)c23)CC1
i,Cc1cccc(NC(=O)Cn2nc3ccc(-c4ccccc4)nn3c2=O)c1
i,COc1ccc(Cn2c(SCC(=O)c3ccc(C)cc3)nc3c(sc4ncccc43)c2=O)cc1
i,COc1ccccc1OCC#CCNC(=O)CCC(=O)c1ccc(Cl)cc1
i,CC(O)(CNC(=O)CC1CCCC1)c1ccco1 (centres undefined)
i,NCCCN1CCOC(c2ccccc2)C1 (centres undefined)
i,Cc1ccnc(N2CCN(c3ncnc4c3cnn4-c3ccccc3)CC2)c1
i,COc1cc(/C=C2\SC(=S)N(c3ccc(O)cc3)C2=O)ccc1O
i,CCCN1CCC(Oc2cc(Nc3nc(Nc4cccc(F)c4C(N)=O)c4cc[nH]c4n3)c(OC)cc2Cl)CC1
i,COc1ccc(Cl)cc1NC(=O)CN1CCc2nc(NC(=O)c3ccco3)sc2C1
i,Cc1nc(C(C)(C)C)cc(=O)n1CC(=O)NCc1ccccc1Cl
i,O=C(NC1CC(O)C(CO)C1)c1nc2ccccc2s1 (centres undefined)
i,N#CCOc1ccc2c(=O)c(-c3ccc(Cl)cc3)c(C(F)(F)F)oc2c1

# Reprinted from the part before: five compounds; new compounds follow.
GIRK2 act,Compound
i,CCCN1CCC(Oc2cc(Nc3nc(Nc4cccc(F)c4C(N)=O)c4cc[nH]c4n3)c(OC)cc2Cl)CC1
i,COc1ccc(Cl)cc1NC(=O)CN1CCc2nc(NC(=O)c3ccco3)sc2C1
i,Cc1nc(C(C)(C)C)cc(=O)n1CC(=O)NCc1ccccc1Cl
i,O=C(NC1CC(O)C(CO)C1)c1nc2ccccc2s1 (centres undefined)
i,N#CCOc1ccc2c(=O)c(-c3ccc(Cl)cc3)c(C(F)(F)F)oc2c1
i,CCOC(=O)c1scc(-c2ccccc2)c1S(=O)(=O)Nc1ccccc1F
i,CCc1noc(-c2ccc(SCC(=O)Nc3ccc(C)c(Cl)c3)nc2)n1
i,Cc1ccc(NC(=O)c2sccc2S(=O)(=O)N(C)c2ccc(F)cc2)cc1F
i,COC(=O)c1cc(Nc2ccc(OC)c(Cl)c2)c2ccccc2n1
i,O=C(Nc1ccc(F)c(F)c1F)c1nnn(-c2ccc(Br)cc2)n1
i,Cc1cccc(OC(C)C(=O)Nc2ccc(S(=O)(=O)Nc3nccs3)cc2)c1 (centres undefined)
i,COc1ccc(S(=O)(=O)N2CCC3(CC2)OCCCO3)cc1F
i,Cc1nc(-c2cccc(NC(=O)c3cnn4c3OCCC4)c2)cs1
i,COc1ccc(CNC(=O)Cn2nc3c(Oc4ccccc4)nccn3c2=O)cc1
i,Cc1nc(-c2ccccc2)sc1CNC(=O)NCc1cccs1
i,O=C(NCCC(O)c1ccc2c(c1)OCO2)C(=O)NCC(F)(F)F (centres undefined)
i,CC(C)NC(=O)N1CC(Oc2nc3c(C(F)(F)F)cccc3s2)C1
i,Cc1ccc(-c2csc3c(=O)n(CC(=O)Nc4cc(F)ccc4C)cnc23)cc1
i,Cc1ccccc1NC(=O)CSc1nccn1-c1cccc(C(=O)NCc2ccccc2)c1
i,O=C(/C=C/c1cccc([N+](=O)[O-])c1)Nc1ccc(Cl)c2ncsc12
i,O=C(c1cnccn1)N1CCC2(CC1)OCCN2S(=O)(=O)c1cccs1
i,Cc1ccc(S(=O)(=O)N2CCCCC2CCNS(=O)(=O)CCN2C(=O)CCCC2=O)cc1 (centres undefined)
i,C=C1C(=O)OC2/C=C(\CO)CC/C=C(\C=O)CC(OC(=O)CC(C)C)C12 (centres undefined)
i,CS(=O)(=O)N1CCC(C(=O)N2CCN(CC(F)(F)F)CC2)CC1
i,O=C(c1cn(-c2cccc(Cl)c2)nn1)N1CCC(Cc2ccccc2)CC1
i,O=C(C1CCN(c2cc(Oc3ccccc3)ncn2)CC1)N1CCc2ccccc2C1
i,CCCc1cc2c(O)c(-c3nc4ccccc4s3)c(=O)oc2cc1OC(=O)OC
i,CN(CC(=O)N1CCOCC1CO)S(C)(=O)=O (centres undefined)
i,COc1ccc(NC(=O)CSc2nc3c(oc4ccccc43)c(=O)n2Cc2ccco2)cc1OC
i,CC(C)N(CC(O)COC12CC3CC(CC(C3)C1)C2)C(C)C (centres undefined)
i,COc1ccccc1NC(=O)c1n[nH]n2c1nc(=O)c1cc(Cl)ccc12
i,COc1ccc(-c2noc(-c3sccc3S(=O)(=O)N(C)c3ccc(C)c(C)c3)n2)c(OC)c1
i,CCn1c(=O)c2c(nc3n2CC(C)=NN3Cc2ccccc2)n(C)c1=O
i,COc1ccc(Cl)cc1N1CC(c2nc(-c3cccc(C(F)(F)F)c3)no2)CC1=O (centres undefined)
i,CCCCNC(=O)Cc1ccc(-n2c(=O)c3ccccc3n(CC(=O)NC3CCCCC3)c2=O)cc1
i,CCCS(=O)(=O)N1CCc2ccc(NC(=O)Nc3cc(Cl)ccc3OC)cc2C1
i,Clc1ccccc1-c1noc(-c2cc(-c3cccs3)[nH]n2)n1
i,O=C(Nc1ccc(F)cc1)N1CCN(c2ccc(-c3ccncc3)nn2)CC1
i,Cc1nnc(C2CCN(C(=O)NCCOc3ccccc3)CC2)s1
i,Cc1cc(C(F)(F)F)nc(CCNC(=O)CN2C(=O)CCC2=O)n1
i,COc1cccc2cc(C(=O)NCC3(c4ccc(F)cc4)CC3)oc12
i,COc1ccc(-c2noc(-c3ccc(=O)n(CC(=O)Nc4ccc(OC)c(OC)c4)c3)n2)cc1
i,COc1cc2nc3sc(Nc4ccc(F)c(F)c4)nn3c(=O)c2cc1OC
i,NS(=O)(=O)c1ccc(CNC(=O)c2cc(=O)c(OCc3ccccc3)co2)cc1
i,CCOc1ccc(C2CC(c3ccccc3NS(C)(=O)=O)=NN2C(=O)c2ccco2)cc1 (centres undefined)

# Part of the list above in order of number of heavy atoms, falling:
GIRK2 act,Compound
i,Cc1cc(C)cc(NC(=O)Cn2c(=O)nc(N3CCC(C)CC3)c3ccccc32)c1
i,CCc1noc(-c2ccc(SCC(=O)Nc3ccc(C)c(Cl)c3)nc2)n1
i,O=C(Nc1ccc(F)cc1)c1ccc2noc(-c3ccccc3)c2c1

# Continued.
GIRK2 act,Compound
i,O=C(Nc1ccc(Br)cc1)N1CCCCC1
i,COc1ccc(CCNC(=O)C(=O)Nc2ccc(N3CCCS3(=O)=O)cc2)cc1OC
i,CCSc1ccccc1C(=O)NCCc1csc2nc(C)cc(=O)n12
i,COc1ccccc1-n1c(C)c(C)n2c3c(=O)n(CCCO)c(=O)n(C)c3nc12
i,COc1ccccc1C(O)Cn1cc(C(=O)N2CCN(c3ccccc3F)CC2)nn1 (centres undefined)

# Screening results as filed in PubChem.
